D2 potentiator: positive allosteric modulators of human D2 dopamine receptor; DiscoveRx D2 beta-arrestin cells, luminescence, 90 min; 100% = 57 uM dopamine signal; potentiation, % (no concentration beside the values); hit rate 0.23% among 360,000; active = potentiation of 50% or more; inconclusive = 30% to 50%; inactive = 30% or less;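 note: compound concentration not given in the record; tested on top of an EC20 dose of dopamine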
Target sequence (P14416 whole entry, looked up): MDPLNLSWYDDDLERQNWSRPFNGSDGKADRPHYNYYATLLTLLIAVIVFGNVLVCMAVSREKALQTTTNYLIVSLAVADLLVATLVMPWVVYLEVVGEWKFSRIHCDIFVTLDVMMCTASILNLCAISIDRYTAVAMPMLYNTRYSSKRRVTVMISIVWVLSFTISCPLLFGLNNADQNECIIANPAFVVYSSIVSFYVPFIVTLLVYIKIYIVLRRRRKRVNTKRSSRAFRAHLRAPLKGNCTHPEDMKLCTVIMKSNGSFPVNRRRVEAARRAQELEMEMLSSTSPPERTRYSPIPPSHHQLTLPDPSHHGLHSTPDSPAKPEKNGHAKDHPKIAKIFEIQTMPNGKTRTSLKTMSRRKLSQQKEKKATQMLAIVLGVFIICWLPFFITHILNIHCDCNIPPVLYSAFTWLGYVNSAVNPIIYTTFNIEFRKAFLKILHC
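PathHunter D2 cells, attached overnight at 37 deg C, received compound in DMSO plus dopamine at EC20 (50 nM final) for 90 min at 37 deg C. Beta-arrestin recruitment was read as luminescence after 1 h with detection reagent at ambient temperature.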
Six1-Eya2 inh: blocks human Six1 binding to Eya2. AlphaScreen GST-Six1/His-Eya2 binding, biochemical; stronger effect = lower value; control for the full effect not named in the record. activity change, % (no concentration beside the values). hit rate 0.56% among 360,000. AID 651725; in the data active = activity change below about -65%; inconclusive = about -30% to -65%; inactive = above about -30%; note: % is set by controls: 0 for no effect and ±100 for the full control effect; compound concentration not given in the record
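GST-Six1 + His-Eya2 (5X stock: 250/500 nM); Tris pH 8.0, 300 mM NaCl, 0.05% BSA, 0.02% Tween 20; GSH donor/Ni acceptor beads; 1 h 37 °C dark; AlphaScreen readout.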
D2 ag: human D2 receptor agonism in beta-arrestin assay | activation, % (no concentration beside the values) | P14416 | DiscoveRx PathHunter D2 beta-arrestin, luminescence, 90 min; 100% = 57 uM dopamine signal | hit rate 0.084% among 360,000; in the data active = activation above about 40%; inconclusive = about 15% to 40%; inactive = below about 15%; note: compound concentration not given in the record; the text of the record calls up to 30% inactive
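Agonist mode: compounds alone added to overnight-plated D2 PathHunter cells for 90 min at 37 C, with 57 uM final dopamine (EC100) defining full response. Beta-arrestin recruitment detected by chemiluminescent reagent, read after 1 h at ambient temperature.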
gsp ag: agonists of gsp mutant (McCune-Albright syndrome). gsp mutant cells, cAMP HTRF, 30 min; control for the full effect not named in the record. Potency, µM (series often up to 76.9 µM), for inactives: at the top dose activation (cAMP increase), hits mostly activators. hit rate 0.13% among 340,000; active = well fitted activation curve with a large enough effect; inconclusive = small, poorly fitted or top-dose-only effect, or another doubt; inactive = no such curve, though single readings can be large or run the other way; cell line not stated here;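 note: phosphodiesterase inhibitor Ro 20-1724 added with compounds to block cAMP breakdown; potency is the fitted concentration of half-maximal effect; nearly all actives have a fitted effect of over 60% in size; about a fifth of the inactives were tested at one dose only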
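Cells in DMEM/10% FBS with G418 were pretreated with compounds in DMSO plus […] (300 uM stock) for 30 min at 37C. cAMP was measured by HTRF (cAMP-d2 plus anti-cAMP antibody-K) after 30 min at room temperature.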
gsp antagonist: gsp mutant antagonism; gsp-mutant cells, cAMP HTRF, 30 min; control for the full effect not named in the record; Potency, µM (titrated, usually from 76.9 µM), for the others: at the top dose activity change, negative = inhibition, actives largely listed as inhibitors; hit rate 0.4% among 340,000; active = falling curve of any shape with a large fitted effect; inconclusive = falling curve, mostly with a smaller effect; inactive = flat or rising curve; cell line not stated here;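 note: intracellular cAMP measured with PDE inhibitor Ro 20-1724 present during compound exposure; potency is the fitted concentration of half-maximal effect; % is set by controls: 0 for no effect and ±100 for the full control effect; nearly all actives have a fitted effect of over 65% in size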
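Measurement of cellular cAMP by homogeneous time-resolved fluorescence following a 30 min compound exposure at 37C. The PDE inhibitor […] was present throughout; the assay buffer was DPBS with 0.05% BSA and 0.005% Tween 20.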
CtBP-E1A blk: inhibitors of CtBP/E1A interaction. AlphaScreen GST-E1A/His-CtBP binding, 1536-well; stronger effect = lower value; control for the full effect not named in the record. activity change, % (no concentration beside the values). hit rate 0.49% among 340,000. AID 651724; in the data active means activity change below about -65%; inconclusive means about -30% to -65%; inactive means above about -30%; note: % is set by controls: 0 for no effect and ±100 for the full control effect; compound concentration not given in the record
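AlphaScreen with 125 nM GST-E1A and 125 nM His-CtBP (5X stocks) in Tris pH 8.0, 300 mM NaCl, BSA, Tween 20, TCEP. Compounds preincubated 2 h at 37 deg C, then glutathione donor/nickel acceptor beads added for 1 h at 37 deg C in dark.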
Starred values were filed as active, the others as inactive; ? = inconclusive; · = no result given; [ ] = another dose, or the depositor's remark.

| CtBP-E1A blk | D2 potentiator | gsp antagonist | gsp ag | D2 ag | Six1-Eya2 inh | molecule |
| --- | --- | --- | --- | --- | --- | --- |
| 6 | 0 | 4% | -22% | -1.1 | 8 | O=C(Nn1cnnc1)c1ccc(Cl)cc1[N+](=O)[O-] |
| 3 | -15 | 11% | -29% | -0.9 | 2 | COCCn1c(Cc2ccccc2)nnc1SCC(=O)N(C)C |
| 7 | -2 | 0% | 36% | 9.0 | 3 | CN1C(=O)/C(=C\c2ccccc2OCc2ccccc2)SC1=S |
| 32 | -21 | · | -60%[inhibitor] | -0.2 | -13 | O=C(CSc1nnc(-c2cccc(Br)c2)o1)NCC1CCCO1 (configuration not stated) |
| · | -12 | -2% | -21% | -1.7 | 2 | COc1cc(/C=C/C(=O)O)cc2c1OCCO2 |
| 2 | -14 | 16% | -21% | -3.5 | 1 | Cc1nn(CCCC(=O)NCc2ccc(F)cc2)c(C)c1[N+](=O)[O-] |
| 2 | 2 | 5% | -29% | 0.3 | -7 | CCOC(=O)CN1Cc2cccc(C(=O)O)c2C1=O |
| 21 | -10 | -23% | 24%[15.4 µM] | 0.0 | 6 | COC(=O)Nc1ccc(S(=O)(=O)Nc2cc(C(F)(F)F)c[nH]c2=O)cc1 |
| · | -4 | -13% | 0%[15.4 µM] | 2.1 | 7 | COc1ccc(C(=O)N2CCCC(CCC(=O)NCc3ccc(F)c(F)c3)C2)cc1F (configuration not stated) |
| -17 | 15 | -23% | 22% | 5.3 | -20 | COc1ccc(-n2ncc3c(N4CCN(Cc5ccccc5)CC4)ncnc32)cc1 |
| · | -7 | -15% | -24% | -0.3 | -3 | C=CCn1c(C)cc(C(=O)COC(=O)/C=C/c2ccc(OC)cc2)c1C |
| 4 | 6 | -15% | 6% | -1.4 | -1 | CCNC(=O)NC1(C(=O)Nc2ccc3c(c2)CCC3)CCCCC1 |
| 2 | 1 | ? | -23% | -0.7 | 16 | Cc1c(NC(=O)C(C)C)cccc1-c1nc2ncccc2o1 |
| -19 | -29 | -10% | 11%[15.4 µM] | -3.9 | -6 | Cc1ccc(-n2cc(CNCCCn3ccnc3C)c(-c3ccc(F)cc3)n2)cc1 |
| 1 | -7 | -4% | 6% | -3.2 | -1 | COc1ccc(Nc2nc3ccccc3c(=O)s2)c(OC)c1 |
| -6 | -16 | 5% | -29% | -2.0 | 1 | O=C(CCNC(=O)OCc1ccccc1)NC1CCCCCC1 |
| -2 | 4 | · | · | 5.3 | -4 | O=C(Nc1ccc2nc([C@@H]3O[C@H](CO)[C@@H](O)[C@H](O)[C@H]3O)[nH]c2c1)NC(c1ccccc1)c1ccccc1 |
| 5 | 2 | 10% | · | 2.4 | 1 | O=S1c2ccccc2Nc2ccccc21 |
| 11 | -11 | 13% | -15% | -1.6 | 15 | N#CC(Nc1ccccc1)c1ccccc1OCc1ccccc1 (configuration not stated) |
| -4 | -19 | 5% | 0% | -9.1 | 3 | CNC(=O)CC1C(=O)N(Cc2ccccc2)C(=S)N1NC(=O)c1cccc(F)c1 (configuration not stated) |
| -13 | -21 | -2% | 12%[15.4 µM] | 4.9 | -6 | Cc1cc(C)n(C(=O)CCCn2cc([N+](=O)[O-])cn2)n1 |
| 3 | -8 | 19% | 12% | -0.8 | 0 | CCNc1nc(NC(C)(C)C)nc(N(C#N)CC)n1 |
| -3 | -22 | 4% | -33%[inhibitor] | -0.2 | 5 | O=C(CSc1nnc(Cn2nnc3ccccc32)o1)Nc1ccc(Cl)cc1 |
| -2 | -16 | -9% | -5% | -0.8 | 4 | CCN(CC)S(=O)(=O)c1cc(C)c(C)cc1OCC(=O)NC1CCCC1 |
| · | -8 | -19% | -16% | -3.3 | 9 | Cc1ccccc1C(=O)Nc1ccc(O)c2c(=O)cc(-c3ccccc3Cl)oc12 |
| 5 | -11 | 10% | 17% | -1.5 | 4 | CCOc1ccc(N=Nc2c(C)noc2C)cc1 |
| 0 | -5 | -27% | 9% | -1.8 | -2 | O=C(CCc1nc2ccccc2[nH]c1=O)OCc1ccc(S(=O)(=O)N2CCOCC2)cc1 |
| 5 | -12 | -1% | -10% | 1.3 | 5 | CCOC(=O)c1cc2sccc2n1CC(=O)N1CCCC1 |
| · | -5 | 2% | 6% | 2.9 | 4 | Cc1ccc(CC2CC(=O)N(c3nc4ccccc4s3)C2=O)cc1 (configuration not stated) |
| 3 | -3 | -2% | -1% | -1.8 | -3 | CC(=O)Nc1cc(C(N)=O)c(Cl)cc1Cl |
| -6 | -9 | -6% | 32% | -0.8 | 12 | COc1cccc(-c2csc(NC3OC(=O)c4c3ccc(OC)c4OC)n2)c1 (configuration not stated) |
| 1 | -1 | 12% | 15% | -4.2 | 9 | Cc1cc(C)nc(-n2nc(C)c(Oc3ccccc3O)c2C)n1 |
| -3 | -2 | 10% | -10% | 1.2 | -13 | NS(=O)(=O)c1ccc(NC(=O)CN2CCCc3ccccc32)cc1 |
| -24 | -11 | 10% | 9% | 1.5 | 1 | C=CCNC(=O)N1CCC(n2nccc2NC(=O)CCCc2ccccc2)CC1 |
| · | 1 | -10% | -61%[inhibitor] | -5.5 | -6 | C/C(=N\NC(=O)c1cccc(N/N=C(\C)c2ccco2)c1)c1ccco1 |
| 12 | 11 | 5% | ? | 0.4 | 1 | O=C(Oc1ccccc1)c1cccc(N2C(=O)CCC2=O)c1 |
| -14 | -7 | 2% | 8%[15.4 µM] | 2.0 | -2 | COC(=O)c1ccc(Cn2nc(-c3ccc(C)c(C)c3)ccc2=O)cc1 |
| 0 | -1 | -6% | -1%[15.4 µM] | -0.4 | 2 | O=C(O)c1ccccc1CSc1ncccc1C(=O)O |
| -4 | 1 | -5% | -4% | 14 | -1 | Cc1ccc(C(=O)NCC(=O)OC(C)C(=O)Nc2ccccc2[N+](=O)[O-])s1 (configuration not stated) |
| 0 | -1 | -3% | 6%[15.4 µM] | -3.0 | 3 | CC(=O)OCC1OC(n2ncc(=O)n(Cc3ccccc3)c2=O)C(OC(C)=O)C1OC(C)=O (configuration not stated) |
| -4 | -1 | · | · | 5.5 | -10 | CCc1nc2ccc(C(=O)NCc3ccc(OC)cc3)cn2c1N(C)Cc1ccc(OC)cc1 |
| -19 | -9 | 1% | 34% | -1.9 | -16 | COC(=O)CSc1nc(N)c(C#N)c(-c2ccco2)c1C#N |
| 1 | -8 | -12% | -80%[inhibitor] | 1.2 | -23 | COc1ccccc1OCc1nnc(SCC(=O)NCc2ccco2)n1Cc1ccco1 |
| -15 | -21 | 12% | -38%[inhibitor] | -1.6 | 3 | Cc1cc(C)c(C)c(OCCOCCN2CCOCC2)c1 |
| 1 | -13 | -6% | 2% | 2.4 | 7 | CC(=O)c1ccc(S(=O)(=O)N(C)CC(=O)Nc2cccc(S(=O)(=O)N3CCCC3)c2)cc1 |
| 2 | -8 | -49% | 21%[15.4 µM] | -1.4 | 0 | O=[N+]([O-])c1ccc2c(c1)nc1n2CCN(C2CCCCC2)C1 |
| 0 | -5 | -6% | -7% | -0.1 | -15 | COC(=O)c1c(N2C(=O)[C@H]3[C@@H](C2=O)[C@]2(C(=O)Nc4c(C)cc(C)cc42)N2CCC[C@@H]32)sc(C)c1C |
| 3 | -10 | 4% | · | -1.7 | 3 | C=CC[C@@H](Cc1ccc(F)cc1)C(=O)OC[C@@H]1CCCN1C(=O)[C@@H](CC=C)CC(=O)NCCO |
| -6 | -3 | 12% | -1%[15.4 µM] | -2.5 | -5 | CC1(C)CC(=O)c2sc(NS(=O)(=O)c3ccc(F)cc3)nc2C1 |
| 10 | -5 | 5% | -31% | -1.9 | 20 | O=C(CN(C(=O)CCC(=O)Nc1nccs1)c1ccc(F)cc1)NCC1CCCO1 (configuration not stated) |
| -2 | -9 | 11% | ? | -3.2 | -13 | COC(=O)C1=C(C(=O)OC)N2C=CC=CC2(C)C(C(=O)OC)=C1C(=O)OC (configuration not stated) |
| 4 | 8 | -14% | 52% | -2.3 | 1 | COc1cccc(NC(=O)CC2(CC(=O)O)CCCC2)c1 |
| -3 | -1 | 8% | 16% | 1.4 | 2 | Cc1ccc(C(=O)NCCc2ccncc2)cc1 |
| 3 | -5 | 9% | 12% | 0.4 | 2 | CC1CCCCC1NC(=O)CCNS(=O)(=O)c1ccc(Cl)cc1 (configuration not stated) |
| 5 | 84* | -10% | -6% | ? | ? | COc1ccc2oc(C)c(C(=O)c3ccc([N+](=O)[O-])cc3)c2c1 |
| 6 | -8 | -22% | -2% | -9.4 | 0 | O=Nc1nc2ncccn2c1-c1ccccc1 |
| 13 | -10 | 3% | ? | -5.2 | 7 | CCn1ccnc1CN(C)Cc1c(C(=O)N2C[C@@H](C)O[C@@H](C)C2)nc2ccc(Cl)cn12 |
| 2 | -7 | 6% | 3% | -1.0 | -1 | CC1CN(c2ccccc2)C(=O)CS1 (configuration not stated) |
| 8 | 7 | 1% | -38% | 0.6 | 7 | CCOc1ccc2nc(NCCNC(=O)CC)c(C#N)cc2c1 |
| -2 | -1 | -26% | ? | 6.4 | 8 | COc1ccccc1-c1nnc(C2CCN(S(=O)(=O)c3ccc([N+](=O)[O-])cc3)CC2)o1 |

Arranged by number of heavy atoms (highest first): some entries from above
| CtBP-E1A blk | D2 potentiator | gsp antagonist | gsp ag | D2 ag | Six1-Eya2 inh | molecule |
| --- | --- | --- | --- | --- | --- | --- |
| 13 | -10 | 3% | ? | -5.2 | 7 | CCn1ccnc1CN(C)Cc1c(C(=O)N2C[C@@H](C)O[C@@H](C)C2)nc2ccc(Cl)cn12 |
| -6 | -3 | 12% | -1%[15.4 µM] | -2.5 | -5 | CC1(C)CC(=O)c2sc(NS(=O)(=O)c3ccc(F)cc3)nc2C1 |
| 2 | -8 | -49% | 21%[15.4 µM] | -1.4 | 0 | O=[N+]([O-])c1ccc2c(c1)nc1n2CCN(C2CCCCC2)C1 |

Next compounds.
| CtBP-E1A blk | D2 potentiator | gsp antagonist | gsp ag | D2 ag | Six1-Eya2 inh | molecule |
| --- | --- | --- | --- | --- | --- | --- |
| -2 | 15 | -24% | 26% | 2.1 | -1 | Cc1ccc(O)c(-c2cc(C(F)(F)C(F)F)[nH]n2)c1 |
| 0 | 0 | 3% | -18% | 3.6 | 6 | COc1ccc(NC(=O)CC2C(=O)N(c3ccc(OC)cc3)C(=O)N2C(C)C)cc1 (configuration not stated) |
| 2 | -2 | 5% | -27% | -0.3 | -4 | Cc1noc(C(=O)N2CCN(c3ccccc3)CC2)c1Cl |
| -7 | -16 | -12% | ? | -6.0 | -13 | CCCCN(CCCC)S(=O)(=O)c1ccc(C(=O)Nc2nnc(COC)o2)cc1 |
| 3 | 4 | 6% | 1% | 4.1 | 2 | C[C@H](CO)N1C[C@H](C)[C@@H](CN(C)Cc2ccc(C(=O)O)cc2)Oc2ccc(NS(=O)(=O)c3cn(C)cn3)cc2C1=O |
| 2 | 8 | -2% | -39%[inhibitor] | -3.5 | 1 | CCCc1nnc(NC(=O)Cn2c(=O)oc3ccccc32)s1 |
| -25 | -6 | ? | -36%[inhibitor] | 8.7 | -8 | COc1ccc2nc(N3CCN(C(=O)C4COc5ccccc5O4)CC3)sc2c1 (configuration not stated) |

Bioassay records (PubChem BioAssay)

The order is random; overall some 1.4% were active at least once.
